Screens (PubChem)
gsp agonist: gsp mutant agonism; gsp mutant cells, cAMP HTRF, 30 min; control for the full effect not named in the record; Potency, µM (doses to about 76.9 µM), for the others: top-dose activation (cAMP increase), hits mostly activators; hit rate 0.13% among 340,000; AID 624287; active = well fitted activation curve with a large enough effect; inconclusive = small, poorly fitted or top-dose-only effect, or another doubt; inactive = no such curve, though single readings can be large or run the other way; cell line not stated here;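 note: phosphodiesterase inhibitor Ro 20-1724 added with compounds to block cAMP breakdown; potency is the fitted concentration of half-maximal effect; nearly all actives have a fitted effect of over 60% in size; about a fifth of the inactives were tested at one dose only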
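Cells in DMEM/10% FBS with G418 were pretreated with compounds in DMSO plus […] (300 uM stock) for 30 min at 37C. cAMP was measured by HTRF (cAMP-d2 plus anti-cAMP antibody-K) after 30 min at room temperature.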
TRPML1 agonist: activates the human TRPML1 channel. Q9GZU1. TRPML1-expressing cells, Ca2+ dye fluorescence, FDSS; host cell line not named in the record; reference of the full effect not given here. activation, % (no concentration beside the values). hit rate 0.12% among 410,000. AID 624414; in the data active = activation above about 50%; inconclusive = about 30% to 50%; inactive = below about 30%; note: 0% is about no effect; the text of the record puts the active cut at 80%
Target sequence (Q9GZU1 whole entry, looked up): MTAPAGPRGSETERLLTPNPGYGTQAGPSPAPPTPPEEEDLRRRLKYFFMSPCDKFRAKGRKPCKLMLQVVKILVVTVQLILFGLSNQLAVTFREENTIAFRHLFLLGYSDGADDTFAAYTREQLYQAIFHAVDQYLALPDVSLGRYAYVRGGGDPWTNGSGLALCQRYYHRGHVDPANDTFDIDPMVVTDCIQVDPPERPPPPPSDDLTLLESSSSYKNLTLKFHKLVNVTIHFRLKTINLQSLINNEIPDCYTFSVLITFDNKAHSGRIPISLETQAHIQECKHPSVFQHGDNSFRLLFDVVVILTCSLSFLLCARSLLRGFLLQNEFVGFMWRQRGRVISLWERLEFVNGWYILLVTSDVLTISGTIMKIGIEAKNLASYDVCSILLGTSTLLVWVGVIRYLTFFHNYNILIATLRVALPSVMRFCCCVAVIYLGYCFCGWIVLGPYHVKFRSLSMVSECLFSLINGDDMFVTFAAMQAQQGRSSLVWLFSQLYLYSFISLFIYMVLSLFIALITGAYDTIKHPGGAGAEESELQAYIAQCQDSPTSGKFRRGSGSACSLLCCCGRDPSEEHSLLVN
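Kinetic FDSS Ca2+ read in Tet-induced TRPML1-DL cells (ABD Ca8 dye plus quencher, 45-90 min RT loading): baseline, then compound, then 110 s agonist window; EC80 agonist 54-4 at 4uM final added afterwards for a 110 s antagonist window.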
gsp antagonist: gsp mutant antagonism; hit rate 0.4% among 340,000; gsp-mutant cells, cAMP HTRF, 30 min; control for the full effect not named in the record; Potency, µM (top dose mostly 76.9 µM), without a hit: at the highest dose activity change, negative = inhibition, most hits filed as inhibitors; active = falling curve of any shape with a large fitted effect; inconclusive = falling curve, mostly with a smaller effect; inactive = flat or rising curve; cell line not stated here;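 note: intracellular cAMP measured with PDE inhibitor Ro 20-1724 present during compound exposure; potency is the fitted concentration of half-maximal effect; % is set by controls: 0 for no effect and ±100 for the full control effect; nearly all actives have a fitted effect of over 65% in size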
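HTRF cAMP read-out (cAMP-d2 plus anti-cAMP antibody-K in lysis buffer, 30 min RT). Before lysis, cells are exposed to compounds with […] for 30 min at 37C in DPBS containing Ca/Mg, BSA and Tween 20.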
TRPML1 inh: inhibitors of human TRPML1 channel | hit rate 0.02% among 390,000 | AID 624415 | TRPML1-inducible cells, Ca2+ dye fluorescence, FDSS; hits give low values; inhibition of EC80 agonist-evoked calcium signal | Q9GZU1 | activity change, negative = inhibition, % (concentration not given with the values); in the data active means activity change below about -50%; inconclusive means about -30% to -50%; inactive means above about -30%;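 note: stimulus is agonist 54-4 at its EC80 concentration; % is set by controls: 0 for no effect and ±100 for the full control effect; compound concentration not given in the record; the text of the record puts the active cut at -80%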
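Tet-induced TRPML1-DL cells loaded with Ca8 no-wash calcium dye were read kinetically on FDSS. Compound addition was followed by EC80 agonist 54-4 (4 uM final); inhibition was read over 110 s.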
ClpP mod: qHTS Assay for Activators of ClpP. AID 651965, 2013. hit rate 1.9% among 340,000. ATP-dependent Clp protease proteolytic subunit (Bacillus subtilis (strain 168)), P80244. purified B. subtilis ClpP, FRET peptide cleavage, 20 min. Potency, µM (doses to about 57.5 µM), for the others: at the highest dose activity change, negative = active; active = well fitted falling curve with a large enough effect; inconclusive = small, poorly fitted or top-dose-only effect; inactive = no such curve, though single readings can be large or run the other way; note: potency is the fitted concentration of half-maximal effect; the source files actives as falling curves though it sought activators and does not explain the sign; nearly all actives have a fitted effect of over 65% in size; many hits overshoot -100%
Target sequence (P80244 whole entry, looked up): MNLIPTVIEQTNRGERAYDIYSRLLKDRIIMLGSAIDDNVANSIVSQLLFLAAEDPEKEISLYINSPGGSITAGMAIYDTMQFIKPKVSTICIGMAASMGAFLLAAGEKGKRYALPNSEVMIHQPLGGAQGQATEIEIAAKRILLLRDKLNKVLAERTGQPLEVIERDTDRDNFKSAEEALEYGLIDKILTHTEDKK
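Purified B. subtilis ClpP, 10 microg/mL final in Tris/HCl pH8 with KCl, BSA, glycerol and Tween-20, cleaved an Abz/nitrotyrosine-quenched decapeptide. Fluorescence (ex 320, em 430) was read at 0 and 20 min at room temperature. Delta was normalized to 5.8 microM ADEP and DMSO/no-enzyme controls.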
Menin-MLL FL inh: displaces fluorescein MLL peptide from human menin | Fluorescence polarization, fluorescein-MLL peptide displacement from menin | FP activity change, % at 61.4 µM | 290,000 tested, under 10 active; inconclusive = falling polarisation curve, or a change in total fluorescence; inactive = total fluorescence flat and polarisation flat or rising; no compound was filed as active; the % refers to the polarisation; negative = inhibition;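 note: % of control where 0% means no effect; inhibitors lower the polarisation; unlabelled MLL peptide was the positive control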
Numbers without * were called inactive; u = inconclusive; x = not tested or not shown; & = joins results of further samples; [ ] = another dose, or the depositor's remark.

SMILES	gsp agonist	TRPML1 agonist	gsp antagonist	TRPML1 inh	ClpP mod	Menin-MLL FL inh
COc1cc2c(C(F)(F)F)c(-c3ccsc3)oc(=O)c2cc1OC	x	0.3	-5%	-10	-1.7%	x
Cc1nn(Cc2ccccc2)c(Cl)c1C(=O)OCc1nnc(-c2ccc(Cl)cc2)o1	30%	-0.8	-14%	-14	-11%	0.6
COc1ccc(C(=O)N/N=C/c2cccc3cccnc23)cc1	-2%	-1.2	-5%	1	0.8%	-0.1
COc1cccc(C(=O)NC(C)c2ccc(Br)cc2)c1 (stereo not drawn)	-56%	1.1	2%	26	-2.1%	-2.7
NS(=O)(=O)c1ccc(CCNC(=O)c2ccccc2-c2ccccc2)cc1	-3%[15.4 µM]	-0.9	10%	-9	0.6%	-6.8
COc1ccc(NC(=O)Cn2nnc(C(=O)NCc3ccccc3)c2N)cc1Cl	5%	-0.7	1%	16	-1.0%	-3.2
CCOc1cnc(-c2c(-c3ccccc3Cl)noc2C)o1	8%[15.4 µM]	1.3	x	3	x	-3.2
CC1(C)S[C@@H]2[C@H](NC(=O)[C@H](N)c3ccc(O)cc3)C(=O)N2[C@H]1C(=O)O	x	0.1	-1%	-1	-8.4%	-0.8
Cc1[nH]n(-c2ccccc2)c(=O)c1C=Nc1ccc(S(=O)(=O)NC(N)=O)cc1	-3%	-1.0	8%	18	0.9%	-0.4
O=C1C2C3C=CC(C3)C2C(=O)N1c1cccnc1 (stereo not drawn)	-25%	0.6	0%	-9	1.1%	0.2
Cc1ccc(NC(=O)c2nnn(-c3cccc(C(F)(F)F)c3)c2N)cc1	0%[15.4 µM]	-0.4	3%	6	x	-5.7
Cc1nn(C(C)c2n[nH]c(=S)n2-c2cccc(Cl)c2)c(C)c1[N+](=O)[O-] (stereo not drawn)	-1%	-0.7	-20%	-2	-0.2%	-1.9
O=S(=O)(NCCc1csc(-c2cccnc2)n1)c1cccc(F)c1	-68%[inhibitor]	-0.3	11%	-9	-27%	-0.8
C#CCOCCOCCOCCNc1nc(N2CCN(C(=O)[C@H](Cc3ccc(O)cc3)n3cc([C@@H](N)CC(C)C)nn3)CC2)nc(N2CCN(C(=O)[C@H](Cc3cc4ccccc4[nH]3)n3cc([C@@H](N)CC(C)C)nn3)CC2)n1	-32%[inhibitor]	-0.2	12%	22	-1.9%	4.3
O=C(NC1CCCC1)C(c1cccs1)N(Cc1ccco1)C(=O)c1csnn1 (stereo not drawn)	-20%	-1.3	6%	9	2.2%	2.5
O=C(Cc1ccccc1)NN1C(=O)c2ccccc2C1=O	6%[15.4 µM]	-0.9	10%	-16	-3.0%	5.3
COCCN(CCOC)C(=O)CN1C(=O)NC2(CCCc3sccc32)C1=O (stereo not drawn)	-15%[15.4 µM]	0.6	17%	11	x	1.6
OC(COc1ccc(F)cc1Cl)CN1CCC(Cc2ccccc2)CC1 (stereo not drawn)	-6%	0.9	18%	-2	1.6%	5.4
CCOC(=O)c1c(C)[nH]c(C)c1S(=O)(=O)NCc1ccccc1OCC	u	-1.0	-4%	28	0.4%	4.0
COCCNC(=O)C(OC(=O)C1=Cc2ccccc2OC1)C(C)C (stereo not drawn)	-4%	0.6	4%	-8	x	2.5
O=C(CCCN1C(=O)C(c2ccccc2)Oc2cccnc21)NCc1ccccc1F (stereo not drawn)	2%	-0.8	-19%	-14	0.4%	2.0
O=C(c1ccco1)N1CCc2[nH]nc(-c3ccc(Cl)cc3)c2C1	12%	-0.2	-10%	25	-2.0%	x
O=C(O)CCn1cc(C(=O)O)c(-c2ccccc2)n1	31%	-0.6	10%	10	1.2%	1.4
Cc1c(C(=O)NCc2ccc(Cl)cc2)sc2nc3n(c(=O)c12)CCC3	x	-0.5	x	0	-19%	x
CCC(C)(C)NC(=O)CN(C(=O)c1snc(C(N)=O)c1N)c1ccc2nc(C)sc2c1	3%	0.5	-2%	-10	-8.0%	-8.1
C[C@@H]1CN([C@@H](C)CO)C(=O)c2cc(NC(=O)c3ccccc3)ccc2O[C@@H](C)CCCCO[C@@H]1CN(C)Cc1ccc(C(F)(F)F)cc1	u	-0.1	x	-4	-16%	x
COc1ccc(/C=C/C(=O)c2nc3ccccc3n2CC(=O)c2ccc(OC)cc2)cc1	-49%[inhibitor]	0.8	-29%	6	0.6%	1.2
Cc1nc2ccccc2c(=O)n1NC(=O)c1ccccc1[N+](=O)[O-]	20%[15.4 µM]	0.5	2%	-4	x	-2.7
CC(C)(C)N1C(=O)[C@H]2[C@@H](c3ccc(Br)cc3)N3C(=O)N(c4cccc(Cl)c4)C(=O)[C@@]3(Cc3ccccc3)[C@H]2C1=O	-15%	0.5	-9%	1	2.6%	x
COc1ccc(C(=O)Nc2c(N)nc(SCC(=O)NCC3CCCO3)[nH]c2=O)cc1 (stereo not drawn)	-4%[15.4 µM]	-0.2	-10%	-4	-2.1%	x
CC(=O)Nc1ccc(S(=O)(=O)Nc2nc3ccc([N+](=O)[O-])cc3s2)cc1	5%[15.4 µM]	-0.3	6%	0	x	-1.2
CC(NC(=O)Cc1ccsc1)c1ccc(F)cc1 (stereo not drawn)	-2%[15.4 µM]	-0.5	3%	-27	x	1.7
Cc1cccc(Nc2nc(N)nc(CN3CCN(c4ccc(F)cc4)CC3)n2)c1	-18%	-0.1	-6%	-6	-5.3%	-2.1
Cc1csc2nc(CNC(=O)c3ccco3)cn12	25%	-0.5	15%	2	-1.3%	1.4
CCc1ccc(NC(=O)CSc2nnc(-c3nonc3NC(C)=O)n2-c2ccccc2)cc1	x	0.1	x	5	2.2%	x
CC(=O)Nc1ccc(S(=O)(=O)Nc2ccc(N3CCCCC3)cc2)cc1	3%	0.2	-9%	11	-1.4%	x
COc1cccc(NC(=O)c2oc3ccccc3c2NC(=O)COc2ccccc2C)c1	x	-0.3	x	-11	-1.9%	x
COc1cccc(-n2c(=S)sc3c(=O)n(-c4ccccc4OC)c(=S)[nH]c32)c1	2%	0.4	-5%	-4	-4.1%	-1.9
Cc1ccc(S(=O)(=O)Nc2nc3ccccc3nc2N2CCOCC2)cc1	-11%	-0.7	-6%	4	x	x
CCOC(=O)c1sc(NC(=O)c2ccc(=O)[nH]c2)nc1C	0%[15.4 µM]	-0.3	2%	6	x	-1.9
CCc1ccc(C2c3[nH]c4ccccc4c3CCN2C(=O)c2ccc(=O)n(C)n2)cc1 (stereo not drawn)	8%	-0.1	5%	1	x	2.0
Cc1ccc([C@@H]2CC=C(C(=O)O)[C@H](c3ccc(F)cc3)N2S(=O)(=O)c2ccc(C)cc2)cc1	12%	0.1	-9%	-11	-0.7%	x
Cc1ccc(Cl)c(OCCN2CCCC(C)C2)c1 (stereo not drawn)	18%	0.3	10%	6	-1.2%	6.5
O=C(Nc1ccccc1)N1CCN(c2ccc(C(F)(F)F)cn2)CC1	-70%[inhibitor]	0.1	-2%	7	u	2.9
COc1ccc(C(=O)NCc2ccc(Cl)c(Cl)c2)cc1OC	3%	-0.4	-6%	-10	-9.7%	5.2
CC1=CC(C)(C)n2c(O)c(N=NC(N)=S)c3c(C)ccc1c32	-3%[15.4 µM]	-0.3	1%	-19	0.5%	3.1
COC(=O)c1ccccc1-n1c(CCC(=O)O)ccc1-c1ccccc1	-4%	-0.4&-1.0	-3%	20&-13	-11%&-10%	4.5
O=S(=O)(c1ccc(Br)cc1)n1c(Cc2ccccc2)nc2ccccc21	-8%[15.4 µM]	-0.9	5%	6	0.6%	0.7
O=C(CSc1nnc(-c2ccc(C(F)(F)F)cn2)s1)c1ccc(Cl)cc1	1%[15.4 µM]	0.4	18%	-17	x	9.3
CCOC(=O)c1nnc(-c2ccccc2)nc1NC	-24%	0.4	1%	14	-1.1%	6.8
O=C(COC(=O)c1cncc(Br)c1)NCCC1=CCCCC1	-29%	-0.8	9%	18	-0.6%	-0.5
CN(C1CCCCC1)S(=O)(=O)c1ccc(SCC(N)=O)nc1	-86%[inhibitor]	-0.4	x	-8	-0.6%	x
Cc1ccc2nc(Nc3nc(C)cc(-c4ccccc4)n3)[nH]c(=O)c2c1	13%[15.4 µM]	0.6	-1%	13	x	3.9
Cc1cc(C[n+]2cc(Br)ccc2N)c2ncccc2c1	-3%[15.4 µM]	-0.2	3%	11	x	-1.2
Nc1nnc(-c2cc3ccccc3oc2=O)s1	u	0.0	3%	-7	25µM*	-7.4
Cn1c(=O)[nH]c(=O)c2c1nc(N1CCNCC1)n2CCOc1ccccc1	-24%	0.0	2%	19	0.6%	x
Cc1ccnc(NS(=O)(=O)c2ccc(NC(=O)C3CCCO3)cc2)n1 (stereo not drawn)	-36%[inhibitor]	0.4	0%	-6	-2.9%	0.2
O=C(NCc1ccccc1)C1CNCC(C(=O)NCc2ccccc2)C1 (stereo not drawn)	4%	-0.5	x	2	4.0%	x
Cc1ccc(NC(=O)CN2C(=O)CC(C)Sc3ccccc32)c(C)c1 (stereo not drawn)	x	1.7	x	-5	0.3%	x
CCCc1cc(=O)[nH]c(SCC(=O)NCCC2=CCCCC2)n1	-5%[15.4 µM]	-0.2	x	7	x	2.6
(more compounds)
SMILES	gsp agonist	TRPML1 agonist	gsp antagonist	TRPML1 inh	ClpP mod	Menin-MLL FL inh
CCN(c1ccc(C)cc1)S(=O)(=O)c1nnc(NC(=O)C2CCCCC2)s1	x	0.0	x	4	0.6%	x
COCCCNC(=O)CCc1c(C)nc2c(-c3ccc(F)cc3)c(C)nn2c1C	u	-0.8	-5%	11	-2.3%	6.3
COc1ccc(-c2cnc(OC(C)(C)C)nc2OC(C)(C)C)cc1OC	-16%	0.2	-14%	-6	-11%	2.0
O=C(CSc1nnnn1C1CCCC1)Nc1ccccc1N1CCOCC1	-22%	-0.1	0%	-23	-0.3%	-4.8
COc1ccc(N2C[C@H](C)[C@@H](CC(=O)Nc3ccc(Br)cc3)C2=O)cc1	u	-0.3	x	7	1.2%	x
CSc1nnc(C)c(=O)[nH]1	-3%	0.3	-3%	11	-0.2%	-2.4
O=S(=O)(/N=C(/Nc1ccc(F)cc1F)c1ccccc1)c1ccccc1	17%	0.5	17%	-1	-0.9%	3.0
COc1ccccc1/C=N/NC(=O)c1nnn(-c2nonc2N)c1CSC1=NCCS1	u	-0.1	-15%	11	-2.8%	5.1

2 neighbouring entries from above, quoted:
SMILES	gsp agonist	TRPML1 agonist	gsp antagonist	TRPML1 inh	ClpP mod	Menin-MLL FL inh
CSc1nnc(C)c(=O)[nH]1	-3%	0.3	-3%	11	-0.2%	-2.4
O=S(=O)(/N=C(/Nc1ccc(F)cc1F)c1ccccc1)c1ccccc1	17%	0.5	17%	-1	-0.9%	3.0
